Screens as filed in PubChem.
StopGo reporter: FMDV 2A StopGo reporter, luciferase signal; hit rate 1.2% among 410,000; human cells with a luciferase reporter of 2A StopGo recoding; control for the full effect not named in the record; Potency, µM (top dose mostly 57.9 µM), without a hit: at the top dose signal change, negative = less light; AID 1159524; active = well fitted falling curve with a large enough effect; inconclusive = small, poorly fitted or top-dose-only effect; inactive = no such curve, though single readings can be large or run the other way; tested in HEK293T cells; also: % is scaled to controls: 0 for no effect and ±100 for the full control effect; nearly all actives have a fitted effect of over 45% in size; luciferase light after 4 h
LASV entry inh: blocks Lassa virus binding to or entry into cells; AID 540256; hit rate 1.2% among 300,000; Potency, µM (titrated, usually from 37.9 µM), for inactives: at the highest dose activity change, negative = inhibition, most hits filed as inhibitors; Lassa virus pseudotype entry inhibition, cell reporter; control for the full effect not named in the record; active means well fitted inhibition curve with a large enough effect; inconclusive means small, poorly fitted or top-dose-only effect, or effect the other way; inactive means flat fitted curve, though single readings scatter; tested in HEK293 cells; also: % is scaled to controls: 0 for no effect and ±100 for the full control effect; nearly all actives have a fitted effect of over 50% in size; luciferase read-out
RE007 growth inh: less growth of the S. pombe RE007 Vpr strain; hit rate 0.21% among 360,000; S. pombe RE007 Vpr strain, BacTiter-Glo ATP luminescence, 24 h; control for the full effect not named in the record; Potency, µM (top dose mostly 92.2 µM), without a hit: top-dose activity change, negative = less growth; active = well fitted falling curve with a large enough effect; inconclusive = small, poorly fitted or top-dose-only effect; inactive = no such curve, though single readings can be large or run the other way;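 also: % is scaled to controls: 0 for no effect and ±100 for the full control effect; nearly all actives have a fitted effect of over 50% in size; the assay follows cell death caused by Vpr and the record does not say whether a fall means rescue or toxicity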
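Fission yeast strain RE007, carrying one chromosomally integrated HIV-1 vpr copy, was seeded at OD 0.01 in PMG+AL medium with 23 nL pinned compound. After 24 h at 30 °C and 99% humidity, viability was read by BacTiter-Glo luminescence.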
SARS PLP yeast: SARS-CoV PLP inhibition in yeast; S. cerevisiae expressing SARS-CoV PLpro, growth rescue; control for the full effect not named in the record; hit rate 0.19% among 330,000; AID 485353; Potency, µM (top dose mostly 32.9 µM), inactives show top-dose activity, positive = growth rescue; active means well fitted rising curve with a large enough effect; inconclusive means small, poorly fitted or top-dose-only effect; inactive means no such curve, though single readings can be large or run the other way; also: 0% is about no effect; nearly all actives have a fitted effect of over 55% in size; growth read by luminescence after 48 h
Cruzain inh noDet: inhibitors of Trypanosoma cruzi cruzain without detergent | purified cruzain, Z-FR-AMC fluorescence, no detergent | Potency, µM, for inactives: max response, negative = inhibition, actives largely listed as inhibitors | hit rate 2.3% among 200,000 | AID 1476;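 also: plate controls were enzyme without inhibitor for no effect and buffer without enzyme for full effect; nearly all actives have a fitted effect of over 40% in size; top concentration of the series not given in the record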
Target sequence (P25779 123-467 limits assumed): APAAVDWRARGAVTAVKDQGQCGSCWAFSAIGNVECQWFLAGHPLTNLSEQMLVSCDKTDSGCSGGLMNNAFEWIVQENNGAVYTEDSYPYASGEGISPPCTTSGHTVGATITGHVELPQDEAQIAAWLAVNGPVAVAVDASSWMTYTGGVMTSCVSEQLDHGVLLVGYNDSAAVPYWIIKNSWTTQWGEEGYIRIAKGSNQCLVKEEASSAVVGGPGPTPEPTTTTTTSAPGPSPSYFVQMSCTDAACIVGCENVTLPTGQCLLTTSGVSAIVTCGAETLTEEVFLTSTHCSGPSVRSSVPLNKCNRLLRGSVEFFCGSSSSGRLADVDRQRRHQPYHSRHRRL
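Purified cruzain at 1.5 nM, pre-incubated 15 min with compound at room temperature in 100 mM sodium acetate pH 5.5, 5 mM DTT, 0.00005% Triton X-100. Reaction started with 2 uM Z-FR-AMC; AMC fluorescence increase over 60 s gives rate.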
Marburg entry inh: inhibitors of Marburg virus binding or cell entry. Marburg virus pseudotyped entry inhibition, cell reporter; control for the full effect not named in the record; about a third of the inactives were read at about 46 µM. Potency, µM (top dose mostly 37.8 µM), inactives show at the top dose activity change, negative = inhibition, actives largely listed as inhibitors. hit rate 1.8% among 300,000. AID 540276; active = well fitted inhibition curve with a large enough effect; inconclusive = small, poorly fitted or top-dose-only effect, or effect the other way; inactive = flat fitted curve, though single readings scatter; tested in HEK293 cells; about a fifth of its hits are not listed in these tables; also: % is scaled to controls: 0 for no effect and ±100 for the full control effect; luciferase read-out
NS1 function inh: influenza NS1 inhibition. S. cerevisiae slowed by influenza A NS1, growth recovery by OD600. Potency, µM (titrated, usually from 46.1 µM), for the others: at the top dose activity, positive = more growth. hit rate 0.4% among 270,000. AID 2326; active means well fitted rising curve with a large enough effect; inconclusive means small, poorly fitted or top-dose-only effect; inactive means no such curve, though single readings can be large or run the other way; also: nearly all actives have a fitted effect of over 50% in size
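S. cerevisiae expressing influenza A NS1, grown in glucose, washed, then diluted 1:100 into pH 6.0 -URA galactose medium with 23 nl compound. Growth recovery read as OD600; NS1-free strain serves as control.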
Cruzain inh Det: inhibitors of Trypanosoma cruzi cruzain with detergent; hit rate 0.43% among 200,000; Potency, µM, for the others: max response, negative = inhibition, most hits filed as inhibitors; purified cruzain, Z-FR-AMC fluorescence, 0.01% Triton; AID 1478; P25779;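 also: plate controls were neutral wells for no effect and buffer without enzyme for full effect; nearly all actives have a fitted effect of over 40% in size; top concentration of the series not given in the record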
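In this qHTS format, compounds are incubated with 1.5 nM cruzain for 15 min at room temperature before 2 uM Z-FR-AMC is added. Release of AMC is followed at 360/450 nm, and progress is taken as the 60 s fluorescence difference.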
An asterisk follows results filed as active; ? = inconclusive; nt = no result given; & = joins results of further samples; [ ] = another dose, or the depositor's remark. Unless noted, calls follow the shape of the dose curve; as a rule, active = well fitted curve in the direction sought with a large enough effect; inconclusive = small, poorly fitted or top-dose-only effect, or another doubt; inactive = no such curve, though single readings can be large; an effect the other way counts as inactive or inconclusive. Potency is read from the fitted curve at half-maximal effect.

SMILES	StopGo reporter	LASV entry inh	RE007 growth inh	SARS PLP yeast	Cruzain inh noDet	Marburg entry inh	NS1 function inh	Cruzain inh Det
COC(=O)CSC(C(=O)Nc1ccc(C)c(C)c1)c1ccccc1 (stereo not drawn)	39%[activator]	27%	5%	-4%	-8%	0%	-4%	-1.6%
Cc1ccc2c(c1)C(=O)C(=O)N2CC(=O)Nc1ccccc1NC(=O)c1ccccn1	-3%	-13%	-16%	2%	nt	?	12%	nt
COCCN(CC(=O)Nc1cccc(C)c1)S(=O)(=O)c1ccc(S(=O)(=O)N2CCCC2)cc1	-18%	7%	-14%	1%	1%	0%&-5%	-2%	6.4%
O=C(CSc1nnc(NC(=O)C2CC2)s1)NCc1ccco1	17%	11%	1%	18%	-15%	?	?	-4.6%
O=C(NC(C(=O)N/N=C/c1cc([N+](=O)[O-])ccc1O)c1n[nH]c(=O)c2ccccc12)c1ccccc1 (stereo not drawn)	-2%	-19%	-5%	20%	nt	-6%[46.1 µM]	-29%	nt
N#Cc1c(NC(=O)c2ccc(Cn3cc(Br)cn3)o2)sc2c1CCCCCC2	?	-11%	-6%	17%	?	?	?	-11%
COc1ccc(C(=O)COC(=O)c2cc([N+](=O)[O-])ccc2N2CCOCC2)c(OC)c1	-19%	-11%	-2%	5%	nt	2.2µM*	nt	nt
CSc1ccc(C2c3c(oc4cc(C)cc(C)c4c3=O)C(=O)N2Cc2ccco2)cc1 (stereo not drawn)	-20%	-1%[46.1 µM]	nt	nt	-14%	11%[46.1 µM]	nt	-0.7%
CCCC(=O)Nc1ccc(C2C(=O)c3ccccc3C2=O)cc1	10µM*	-50%	-25%	8%	nt	?	?	nt
COc1ccccc1NC(=O)c1cn(CCC#N)nc1-c1cccc(Cl)c1	4%	nt	8%	-7%	nt	nt	-11%	nt
CCOc1ccc(OCCN2CCCCC2)cc1	-5%	-2%	17%	7%	1%	1%	14%	2.7%
CCOC(=O)[C@@H]1[C@H]2COc3cc(OC)ccc3[C@@H]2N2C(=O)N(c3cccc(Cl)c3)C(=O)[C@]12C	-10%	nt	-24%	-2%	nt	nt	14%	nt
CCOc1cccc2c1N[C@@H](c1ccc(C(=O)O)cc1)[C@H]1CC=C[C@@H]21	-14%	31%[46.1 µM]	nt	nt	?	?	nt	?
CCn1c2ccccc2c2cc(NC(=O)COC(=O)c3ccccc3F)ccc21	0%	11%	6%	8%	?	2%	14%	-1.3%
CC1Cc2ccccc2N1C(=O)CSc1nc2ccccc2s1 (stereo not drawn)	47%[activator]	1%	5%	-14%	-17%	1%	-1%	-2.4%
CC(C)CNc1nc(Oc2ccc(=O)[nH]n2)nc(N2CCOCC2)n1	-10%	?	-4%	1%	nt	?	1%	nt
COC(=O)Cn1cc([N+](=O)[O-])nc1C	10%	2%	-8%	0%	nt	4%	nt	nt
COc1ccccc1NC(=O)c1ccc(S(=O)(=O)N(C)c2ccccc2)cc1	?	-23%	16%	2%	nt	-2%	nt	nt
COc1cc(O)c(C(CCN2CCCC(C)C2)c2ccc3c(c2)OCO3)c(OC)c1 (stereo not drawn)	34%[activator]	nt	?	0%	nt	nt	-9%	nt
Cc1cc(C)c2c(c1)C(=O)/C(=C/c1ccc(C(=O)O)cc1)CC2	25%	10%	-4%	-1%	nt	-2%	0%	nt
Cc1cc(NC(=O)CSc2nc(C3CC3)nc3sc(C)c(C)c23)no1	nt	?	1%	-4%	-11%	-15%	-2%	-0.7%
CC(C)CC(NC(=O)C1CCCCC1)C(=O)N1CCN(c2ccccn2)CC1 (stereo not drawn)	20%	-18%	?	4%	-7%	-1%	-2%	3.4%
Cc1ccc(NC(=O)c2ccc([N+](=O)[O-])o2)cc1C	18%	?	?	-33%	nt	?	nt	nt
CCOC(=O)c1noc2ncnc(Nc3cccc(OC)c3)c12	-2%	-12%[46.1 µM]	nt	nt	-7%	nt	nt	-1.3%
CCOC(=O)C1CCC(CN(Cc2ccc(OC)cc2)S(=O)(=O)c2ccc(F)c(C(=O)Nc3ccc(C)c(C)c3)c2)CC1 (stereo not drawn)	-9%	21%[46.1 µM]	nt	nt	-19%	nt	nt	0.8%

(listing goes on)
SMILES	StopGo reporter	LASV entry inh	RE007 growth inh	SARS PLP yeast	Cruzain inh noDet	Marburg entry inh	NS1 function inh	Cruzain inh Det
CCOCCCn1c(SCC(=O)Nc2cccc(S(=O)(=O)NC3=NCCCCC3)c2)nc2ccccc2c1=O	-9%	nt	-3%	-1%	nt	nt	0%	nt
O=c1c(-c2ccc(O)cc2O)coc2cc(O)cc(O)c12	21%	nt	9%	0%	nt	nt	1%	nt
CC(/C=C/c1ccccc1)=N/NC(=O)CNC(=O)c1ccccc1F	-17%	-23%	13%	1%	nt	-7%[46.1 µM]	nt	nt
CC(Cc1cccs1)NCc1ccc(Cl)cc1 (stereo not drawn)	2%	15%	8%	-1%	nt	-6%	nt	nt
O=c1[nH]c(SCc2ccccc2Cl)nc2c1cnn2-c1ccccc1	?	nt	-10%	5%	16µM*	nt	-20%	-3.0%
CCOC(=O)Cn1c(=O)oc2cc(S(=O)(=O)N(C)c3ccc(OC)cc3)ccc21	-22%	-10%	10%	0%	nt	1%	0%	nt
COc1ccc(CNC(=O)c2ccc(CS(=O)Cc3ccccc3Cl)o2)cc1 (stereo not drawn)	-28%	?	nt	nt	-2%	nt	nt	-3.7%
C=CCCC(=O)N1CCC(n2nccc2NC(=O)c2ccccc2C)CC1	-19%	0%	-12%	6%	nt	0%	1%	nt
O=C1NCCN1Cc1cccc(Cl)c1	23%	-3%	3%	5%	13µM*	10%	3%	-0.1%
CCc1ccc(-n2nc(C)c3c(C)cc(=O)n(CC(=O)Nc4ccc(OC)c(OC)c4)c32)cc1	-8%	2%[46.1 µM]	nt	nt	-4%	nt	nt	-1.0%
CCN(CC)c1ccc(/C=N/NC(=O)c2cccc(S(=O)(=O)N3CCOCC3)c2)c(O)c1	?	?	8%	8%	nt	?	6%	nt
CN1C=CC=C/C1=C1/SC(=S)N(Cc2ccccc2)C1=O	-14%	8%	-8%	19%	-10%	-2%	3%	-11%
Cc1ccc(NC(=O)C(=O)NCC(c2cccnc2)N2CCN(Cc3ccccc3)CC2)cc1 (stereo not drawn)	?	?	nt	nt	-10%	nt	nt	-4.2%
O=C(CCc1ccccc1)N/N=C\C1CC=CCC1 (stereo not drawn)	34%[activator]	?	1%	-3%	nt	0%	8%	nt
CCNC(=O)NC(=O)COC(=O)CCCSc1nc2ccccc2s1	?	?	-10%	5%	11%	?	-21%	-5.9%
C=CCOC(=O)C1=C[C@H](c2cn(C(C)=O)c3ccccc23)C[C@H](OCCCCO)O1	-13%	nt	15%	-1%	nt	nt	-4%	nt
COc1ccc(NC(=O)C(F)(OC)C(F)(F)F)c(OC)c1 (stereo not drawn)	nt	10%	-2%	1%	-3%	1%	-6%	2.4%
C=CCCCN(Cc1ccccc1)S(=O)(=O)c1ccccc1Br	-12%	nt	-9%	-7%	nt	nt	-6%	nt
CCc1nnc(NC(=O)CSc2nc(C)cs2)s1	2%	1%[46.1 µM]	-10%	0%	nt	-2%[46.1 µM]	?	nt
O=C(NCCS(=O)(=O)N1CCN(c2ccccc2)CC1)C1CC(=O)N(c2ccccc2)C1 (stereo not drawn)	-16%&-3%	14%[46.1 µM]	-4%	0%	-8%	nt	3%	-6.6%
CC1=C(C(=O)N2CCOCC2)C(c2cc(C)ccc2C)NC(=S)N1 (stereo not drawn)	-9%	?	0%	5%	nt	5%[46.1 µM]	nt	nt
O=C(COc1ccc(Cl)cc1Cl)N/N=C/c1cccnc1	-7%	-13%[46.1 µM]	6%	0%	nt	?	-3%	nt
O=C(Nc1ccncc1)c1ccc(C(=O)Nc2ccncc2)cc1	-16%	-3%	6%	-1%	nt	?	nt	nt
O=C(N/N=C/c1cccnc1)c1ccc(NC(=O)c2cccc(Cl)c2)cc1	0%	1%[46.1 µM]	4%	9%	nt	21%[46.1 µM]	1%	nt
c1ccc(Nc2c3c(nc4ccccc24)CCC3)cc1	?	-38%	-5%	-1%	nt	?	-4%	nt

Next section.
SMILES	StopGo reporter	LASV entry inh	RE007 growth inh	SARS PLP yeast	Cruzain inh noDet	Marburg entry inh	NS1 function inh	Cruzain inh Det
Cc1c(C(=O)Nc2nonc2-c2ccc(F)cc2)oc2ccc(F)cc12	?	?	-27%	-6%	nt	?	-13%	nt
Cc1coc2c(C)c3oc(=O)c(CCC(=O)NCc4ccccn4)c(C)c3cc12	-10%	nt	-1%	-14%	nt	nt	2%	nt
CCOC(=O)c1c(NC(=O)COC(=O)c2cnc(C)cn2)sc(C(=O)N(C)C)c1C	-19%	-13%	-11%	-2%	nt	-1%	nt	nt
Cc1nccn1-c1ncnc2sc3c(c12)CCCC3	nt	-12%	-9%	-1%	7%	-29%	-2%	-2.4%
Cc1cccn2cc(CSc3ccccc3N)nc12	28%	58%[14.3 µM]	-5%	9%	2%	-29%	-3%	-1.1%
O=C1c2ccccc2C(=O)N1CC1c2ccccc2CCN1S(=O)(=O)c1ccccc1 (stereo not drawn)	-19%	-19%	-3%	1%	-3%	-4%[46.1 µM]	3%	-3.3%
Cc1ccc2cc(C)c(N3CCN(c4ccccn4)CC3)nc2c1	-6%	nt	?	-19%	3%	5%	-95%	-15%
O=C(Nc1ccccc1)Nc1sccc1-c1nc2ccccc2s1	-14%	0%	0%	2%	nt	2%&2%[46.1 µM]	9%	nt
CC1CCCCN1CCCNC(=O)Cn1ncc2c([nH]c3ccccc32)c1=O (stereo not drawn)	-27%&-18%	21%[46.1 µM]	1%	14%	nt	nt	11%	nt
CCOc1cccc(C(=O)NCc2ccccc2)c1	24%	15%	1%	0%	nt	-4%[46.1 µM]	-2%	nt
CC(C)CCNC(=O)CN(C(=O)Cn1nnc(-c2ccc(F)cc2)n1)C1CCCC1	37%[activator]	4%	18%	-1%	?	?	3%	1.3%
CCCCOC(=O)c1cc(Cl)c(O)c(OC)c1	7%	-5%	2%	-3%	nt	?	-50%	nt
O=C(NCCNC(=O)c1ccco1)c1ccc(F)cc1	1%	-9%	-22%	0%	nt	8%[46.1 µM]	1%	nt
CC(C)(C)c1ccc(C(=O)N2CCC(C(=O)NC3CC3)CC2)cc1	28%	1%[46.1 µM]	8%	1%	nt	9%[46.1 µM]	2%	nt
